UUG fidelity: alters start codon recognition fidelity in yeast. actives 0.13% (n = 350,000). activity score, % at 18.7 µM. S. cerevisiae UUG-firefly luciferase reporter, luminescence/redox ratio;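 active means replicate mean at a twofold rise or more, about +100% in these data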;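 further: firefly luciferase made from a UUG start codon reports start codon fidelity; reporter light over untreated wells divided by growth signal over untreated wells; some hits fall short of that in this replicate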
CSC inhib: blocks cancer stem cells; cancer stem cell-like cells viability, luminescence; inhibition, % at 7.5 µM; actives 1.1% (n = 300,000); AID 2717;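 active means mean at 75% or more and at least half the replicates too; inconclusive means mean and replicates disagree; tested in HMLE shEcad cells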;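 further: 0% = median of negative and 100% = median of positive control wells; the first replicate is given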
Rce1 inhib: blocks yeast Ras-converting enzyme; actives 0.27% (n = 290,000); Q03530; yeast membranes, quenched prenylated peptide cleavage fluorescence; AID 2563; calls only;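 active means fall in fluorescence gain of 50% or more versus controls, with final raw signal at or below 3038400; inconclusive means same 50% fall but final raw signal above 3038400; inactive means fall in fluorescence gain under 50%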;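 further: plate controls were neutral control wells for no effect and wells lacking membranes for full effect; tested at 10 µM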
Target sequence (Q03530 whole entry, looked up): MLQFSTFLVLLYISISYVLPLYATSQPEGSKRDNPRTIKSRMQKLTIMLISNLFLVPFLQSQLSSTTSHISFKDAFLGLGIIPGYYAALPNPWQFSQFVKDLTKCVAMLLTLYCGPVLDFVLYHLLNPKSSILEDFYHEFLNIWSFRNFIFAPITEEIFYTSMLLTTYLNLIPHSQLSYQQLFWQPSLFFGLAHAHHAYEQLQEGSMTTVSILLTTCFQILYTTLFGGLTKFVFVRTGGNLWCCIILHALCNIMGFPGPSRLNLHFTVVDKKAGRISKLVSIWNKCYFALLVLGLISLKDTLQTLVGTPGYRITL
eIF4H inh: inhibitors of RNA binding by human eIF4H; inhibition, % at 35 µM; Q15056; actives 0.94% (n = 290,000); eIF4H fluorescence polarization binding assay; AID 2012;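 active means 50% or more with normal probe brightness, or confirmed in later tests; inconclusive means above 50% with abnormal brightness, or retests that disagree; inactive means below 50% or failed in later tests; about a fifth of its hits are not listed in these tables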;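 further: calls also rest on retests at 20 µM and on dose response follow-up; 0% = protein and probe with vehicle and 100% = probe without protein; strong numbers were not always called active; many hits fall short of the cut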
MT1-MMP act inh: blocks activation of human MT1-MMP | P50281 | HT1080 RFP-PRO-GFP cells, GFP/RFP ratio fluorescence, overnight; percent of plate control window, DMSO zero | GFP/RFP ratio change, % at 20 µM | actives 0.061% (n = 360,000) | AID 651647;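 active means GFP/RFP ratio change of at least 30% with cell ATP level not reduced by more than half and red fluorescence within 50% of control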; further: strong numbers were not always called active
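Assay system: RFP-PRO-GFP reporter HT1080 cells; read-out basis: GFP/RFP fluorescence ratio; benchmarks: DMSO wells and RFP-L50D-GFP cells; doses: 20 µM single dose, 1% DMSO; schedule: overnight cell settling, then overnight compound exposure, 37 °C, 5% CO2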
PABP polyA inh: PABP-poly(A) binding inhibition; P11940; PABP-poly(A) RNA binding, fluorescence polarization; inhibition, % at 35 µM; actives 1% (n = 290,000); AID 2014;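 active means 50% or more with normal probe brightness, or confirmed in later tests; inconclusive means above 50% with abnormal brightness, or retests that disagree; inactive means below 50% or failed in later tests; about a fifth of its hits are not listed in these tables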;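 further: calls also rest on retests at 20 µM and on dose response follow-up; controls were probe without protein and protein plus probe with vehicle; some compounds called inactive have numbers as strong as hits; many hits fall short of the cut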
HIV Env fusion: HIV envelope-mediated fusion inhibition; HeLa-JRFL Env/CEM21 cell fusion, luciferase; inhibition, % at 12.3 µM; actives 1.1% (n = 360,000); AID 651610;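 active means mean replicate inhibition score of at least 50 and every replicate individually at or above 50; inconclusive means only one of the two criteria met; inactive means mean below 50 and not all replicates reaching 50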;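 further: 0% = plate neutral controls and 100% = maraviroc near 300 nM; one replicate is shown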
MT1-MMP act inh RFP: further read-out of MT1-MMP act inh, marked with its call; RFP signal change, %; measured here: RFP expression control read;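 0 = vehicle wells; hits needed this value within 50% of zero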
Active calls of the source: *; i = inactive; ? = inconclusive; nt = no result given. The order is random; overall some 3% were active at least once.

Values in the order: UUG fidelity	CSC inhib	Rce1 inhib	eIF4H inh	MT1-MMP act inh	MT1-MMP act inh RFP	PABP polyA inh	HIV Env fusion
- COc1ccc(C2/C=C\CN(C(=O)NC(C)C)CC(=O)N2Cc2ccc(F)cc2)cc1 (stereo unspecified)
    -2	-22	i	-10	-7	-7	-2	19
- COc1ccc(NC2=NCCC2)cc1
    -13	-11	i	4	0	-1	4	nt
- COC(=O)c1ccc(NC2c3ncccc3C(=O)N2Cc2cccs2)cc1 (stereo unspecified)
    nt	-5	i	2	-3	-1	-7	-13
- CCOc1ccccc1-n1c(COc2ccc(C)cc2)nnc1SCC(N)=O
    nt	-7	i	-5	6	-1	11	nt
- COc1ccc(S(=O)(=O)N2CCN(CC(=O)Nc3sccc3C(N)=O)CC2)cc1OC
    -22	-5	nt	nt	4	-5	nt	nt
- Cn1nnnc1SCC(=O)c1c(N)n(C)c(=O)n(C)c1=O
    4	nt	i	-5	2	4	0	nt
- CCN(CC)c1ccc(C(=O)OCc2c(C)noc2C)cc1
    nt	-10	i	4	1	1	1	19
- CCOc1ccccc1C(=O)NC1CCN(Cc2ccccc2)CC1
    11	-4	i	1	-1	4	6	-32
- COc1cc2c(cc1OC)CN(C(=O)c1cccc(S(=O)(=O)N(C)C)c1)CC2
    -8	-1	i	-9	10	4	5	15
- CCCCNC(=O)C1(C)CCN1C(=O)c1cc2ccccc2s1 (stereo unspecified)
    -6	nt	nt	nt	-2	-6	nt	-13
- C=CCOc1ccc(Br)cc1/C=C1\NC(=S)N(C(C)=O)C1=O
    -17	49	i	-3	7	-7	-4	-15
- COCCCNc1nc2nonc2nc1N1CCN(C2CCCC2)CC1
    -3	-6	i	10	-1	0	-4	6
- O=C(NCc1cccc(Br)c1)c1cc(-c2ccccc2)nn1CC1CC(c2cccnc2)=NO1 (stereo unspecified)
    -18	12	i	nt	1	2	nt	-21
- COc1cc2c(c(OC)c1OC)-c1ccc(NC(=O)c3ccc(F)cc3)c(=O)cc1[C@@H](NC(C)=O)CC2
    -1	53	i	-6	-7	-14	-8	12
- CCn1c(=O)n(CC)c2cc(S(=O)(=O)N3CCOCC3)ccc21
    -7	-14	i	0	-1	1	-2	nt
- COCc1c(C(=O)Nc2ccc3nc(N4CCOCC4)sc3c2)oc2ccccc12
    -9	nt	nt	nt	8	-3	nt	7
- COc1ccccc1NC(=O)CSc1nnnn1C1CCCCC1
    -14	nt	i	-6	13	-7	-4	-7
- CCCCCCCCCCCn1nnnc1N
    -18	nt	nt	nt	-3	-6	nt	-16
- COc1ccc(N2CCN(C(CNC(=O)C3CCCCC3)c3ccco3)CC2)cc1 (stereo unspecified)
    -14	-12	i	nt	3	-9	nt	nt
- Cc1ccc(CNC(=O)CCSCc2ccc(C)cc2)cc1
    -16	-10	i	3	1	4	11	11
- CC(OC(=O)c1cccnc1Cl)C(=O)Nc1ccc2c(c1)OCO2 (stereo unspecified)
    -8	-14	nt	nt	0	-12	nt	-9
- CC1=CC(C)(C)Nc2cc(C)c(C)cc21
    -4	-3	nt	?	-8	4	?	nt
- COc1cccc(NC(=O)CNC(=O)c2ccc(C)cc2)c1
    14	nt	i	3	3	1	-8	2
- O=[N+]([O-])c1ccc(/C=N/N2CCN(Cc3ccccc3)CC2)cc1
    -4	-6	i	-3	3	-2	-1	1
- O=c1c2ccccc2c(C=Nc2ccc(O)cc2)c(O)n1-c1nccs1
    nt	-2	i	0	nt	nt	6	nt
- Cn1c(=O)c2c(nc(NCc3ccco3)n2CCc2ccccc2)n(C)c1=O
    -2	-10	i	-2	5	-14	14	nt
- CC(=O)c1cccc(NC(=O)CSc2ccc(-c3ccccn3)nn2)c1
    -27	3	i	-16	8	1	4	-5
- Cc1cc(C)cc(NC(=S)N(C)C)c1
    -35	-20	i	-2	4	4	9	-2
- CC1CCN(C(=O)c2cc3c(ccc4ccccc43)o2)CC1
    -52	20	i	1	-1	0	0	-279
- CN(C)C(=O)COC(=O)/C=C/c1cn(-c2ccccc2)nc1-c1cccs1
    nt	11	i	0	-4	0	-3	0
- C[C@H](CO)N1C[C@H](C)[C@@H](CN(C)S(=O)(=O)c2ccc(F)cc2)Oc2c(NC(=O)CCC(F)(F)F)cccc2C1=O
    4	-7	nt	nt	0	4	nt	-31
- Cc1cccc(OCC(=O)Nc2ccccc2N2CCCC2)c1C
    -3	80*	i	nt	1	-4	nt	-16
- S=c1[nH]nc(Cc2n[nH]c(=S)n2-c2ccccc2)n1-c1ccccc1
    -7	0	i	12	-2	2	8	-2
- CC(C)CNC(=O)Cn1nc(C(F)(F)F)c2c1CCCC2
    nt	-4	i	0	5	1	2	5
- Cc1cc(OCc2cc(C(=O)NC(C)c3c(C)nn(C)c3C)no2)cc(C)c1Cl (stereo unspecified)
    -12	-10	i	-7	0	-19	-7	-28
- C=CCOc1cccc(C2C(C(=O)c3ccc(C)o3)=C(O)C(=O)N2CCN(C)C)c1 (stereo unspecified)
    -11	11	nt	6	-13	-1	7	nt
- CCCC(=O)Nc1nn(CCC)c2nc3ccccc3cc12
    -10	nt	i	-3	-3	1	41	-61
- Oc1ccc(Cl)cc1CNCC1CCCCC1
    -1	2	nt	nt	15	1	nt	-34
- Cc1ccc(NC(=O)Cn2cnc3cc([N+](=O)[O-])ccc3c2=O)c(Cl)c1
    nt	7	i	-2	0	0	8	-9
- Cc1nc(SCC(=O)Nc2ccc(F)cc2)c2oc3ccccc3c2n1
    -20	-19	i	1	2	5	0	nt
- CCOC(=O)c1sc(NC(=O)COC(=O)Cn2cnc3ccccc32)c(C(=O)OCC)c1C
    -14	18	i	-3	-6	-8	-8	-71
- Cc1cccc(N2CCN(C(=O)CCNS(=O)(=O)c3ccc4c(c3)CCC(=O)N4)CC2)c1C
    nt	15	i	-6	0	-6	4	18
- O=C(CCCN1C(=O)c2cccnc2C1=O)Nc1ccccc1F
    nt	-6	i	-1	8	9	1	7
- CC1(C(=O)Nc2ccccc2Br)CCN1C(=O)Cc1ccc(Cl)cc1Cl (stereo unspecified)
    -3	nt	nt	nt	2	-1	nt	-81
- O=C(OCn1ncc(Cl)c(Cl)c1=O)c1ccccc1Cl
    -35	-50	i	-10	-23	-37	-13	i
- O=C(O)c1ccc(N/N=C/c2ccc3c(c2)OCO3)cc1
    nt	-7	i	9	-2	2	7	70*
- O=C(/C=C/c1ccc(S(=O)(=O)NCc2ccco2)cc1)N1CCN(c2ccccc2)CC1
    -4	-2	i	0	-3	-16	7	16
- O=C(NC(NC(=S)Nc1ccccc1)C(Cl)(Cl)Cl)c1cccc(Cl)c1 (stereo unspecified)
    nt	89*	i	-4	-5	-26	4	16
- CCC(=O)N(CCC(c1ccco1)c1ccccc1OC)Cc1cccs1 (stereo unspecified)
    -4	4	i	3	-5	-2	-11	6
- COc1ccccc1N1CCN(CC(=O)Nc2ccccc2C(=O)NCCc2ccccc2)CC1
    15	nt	nt	nt	0	-4	nt	-11
- CN1CCN(c2nc3c(c(=O)[nH]c(=O)n3C)n2CCSc2nnnn2-c2ccccc2)CC1
    -9	-14	i	-1	-3	-4	-9	5
- O=C(Nc1ccc(S(=O)(=O)N2CCCC2)cc1)N1c2ccccc2Sc2ccccc21
    -19	-8	i	2	-2	-5	6	nt
- CCCCN(C(=O)c1ccc2c(c1)OCO2)c1c(N)n(CC(C)C)c(=O)[nH]c1=O
    -12	2	nt	nt	1	-6	nt	-2
- Cc1nc2ccccc2n1CC(=O)N1CC(=O)Nc2ccccc21
    nt	-1	i	-3	5	0	-8	nt
- COc1ccc(NC(=O)c2cccc(NC(=O)C3C4CC5OC(=O)C3C5C4)c2)c(OC)c1 (stereo unspecified)
    -7	-1	i	0	1	6	-7	nt
- CCCCC(=O)Nc1nc(C)c(-c2csc(Nc3cc(Cl)ccc3OC)n2)s1
    -12	11	i	-5	2	0	10	10
- COc1ccc(C(=O)N(C)Cc2ccccc2F)cc1S(=O)(=O)N1CCCC1
    -1	1	nt	nt	-1	0	nt	nt
- Cc1[nH]nc2c1C(c1ccccn1)N(c1ccc(Br)cc1)C2=O (stereo unspecified)
    -4	-15	i	4	-2	-1	-1	29
- Cc1cccc(NC(=O)COC(=O)CCc2c[nH]c3ccccc23)c1C
    -8	nt	nt	nt	1	3	nt	2
- Cc1ccc(NC(=O)Cc2ccc(Cl)cc2)nc1
    -17	-5	i	nt	-6	-3	nt	-15

Carrying on.
Values in the order: UUG fidelity	CSC inhib	Rce1 inhib	eIF4H inh	MT1-MMP act inh	MT1-MMP act inh RFP	PABP polyA inh	HIV Env fusion
- Cc1cc(C)c2c(CN3CCN(C/C=C/c4ccccc4)CC3)cc(=O)oc2c1
    12	nt	nt	-7	0	5	-3	22
- c1cnc(N2CCN(c3ccc4ccccc4n3)CC2)nc1
    -30	3	i	-12	0	-1	10	-69
- Cc1cccc(-c2noc(CN(C(=O)c3c(-c4ccccc4Cl)noc3C)C(C)C)n2)c1
    -7	14	nt	-15	-8	-21	-3	25
- O=C(CN1CCCCCCC1)Nc1cc(Cl)cc(Cl)c1
    nt	-11	i	-4	2	-3	-4	-18
- Cc1ncoc1C(=O)N1CCCC(C(=O)c2cccc(C(F)(F)F)c2)C1 (stereo unspecified)
    nt	-6	i	-8	4	2	0	16
- Cc1cc(NCCOCCO)n2ncc(-c3ccc(Cl)cc3)c2n1
    -2	29	i	1	-20	-3	-2	-126
- CC(=O)Nc1ccc(S(=O)(=O)N2CCC(C(=O)NCCC(=O)Nc3nccs3)CC2)cc1
    nt	-12	i	-7	2	5	-2	-2
- COC(=O)c1nc(N)sc1-c1ccccc1
    -5	-12	nt	-4	9	-2	9	nt
- CCN(CCCNC(=O)Cn1ncc2c([nH]c3ccc(C)cc32)c1=O)c1cccc(C)c1
    -12	-1	i	-4	2	5	-2	nt
- CCOC(=O)N1CCC(N2CCCC(CO)(Cc3ccccc3C)C2)CC1 (stereo unspecified)
    nt	-8	i	-8	-2	8	-4	-2
- C=C1c2ccccc2O[C@H](C(=O)OCC)[C@@H]1C1CCCCC1
    0	nt	nt	nt	0	2	nt	-37
- COc1ccc(CSc2ccc(S(=O)(=O)N3CCCCC3)cn2)cc1F
    -12	nt	nt	nt	-5	-10	nt	0
- CCOc1cc(CO)cc(Br)c1OCC(N)=O
    nt	-18	i	0	2	1	-6	-1

Bioassay records as filed in PubChem.
